Mtb bLac sens – beta-lactam sensitization of Mtb H37Rv. M. tuberculosis H37Rv growth with meropenem, percent inhibition; hits of this screen are not shown here. inhibition, % at 25 µM. 330,000 tested, 0.27% active. AID 434955;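 active = about 74% or more and at least 40 points above the plate without the antibiotic, then above 30% in a dose series; inconclusive = first-round hits that could not be retested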;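 also: growth measured after seven days incubation then overnight dye step; 0% = bacteria only wells and 100% = bacteria with antibiotic; twin plates without the antibiotic show which effects depend on it; some results filed as inactive read as strong as hits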
Numbers without * were called inactive.

`O=S(=O)(c1cccc(-c2n[nH]c(=S)n2-c2ccccc2Cl)c1)N1CCOCC1` gave Mtb bLac sens -6.4.
Screening Cc1ccccc1SCC(=O)OCC(=O)NCc1ccccc1 returned Mtb bLac sens 2.9.
Screening CCC/C(=C1/c2ccccc2C(=O)N1c1ccccc1)c1ccc2c(c1)OCO2 returned Mtb bLac sens -1.5.
N#Cc1ccccc1OCC(=O)NC1CCCCC1 was read as Mtb bLac sens -16.0.
COc1ccc(C2(C)ON(c3ccccc3C(F)(F)F)C2=O)cc1 (centres undefined) was read as Mtb bLac sens 9.0.
For O=C(NCC1CC1)c1cccc2c1C(=O)c1ccc(-c3ccc(OC(F)(F)F)cc3)cc1S2(=O)=O the results were Mtb bLac sens 1.5.
CC(C)NC(=O)Nc1ccc2c(c1)CC(=O)N([C@@H](C)CO)C[C@H](C)[C@@H](CN(C)C(=O)NC1CCCCC1)O2 was read as Mtb bLac sens -1.7.
For CC1CC(=O)Nc2ccccc2N1C(=O)CSc1ccc2ccccc2n1 (centres undefined) the results were Mtb bLac sens -6.9.
Screening Nc1ccc(S(=O)(=O)N2CCOCCOCCOCCOCCOCC2)cc1 returned Mtb bLac sens -7.0.
Screening O=C(CSc1nnc(-c2ccncc2)o1)Nc1cc(F)ccc1F returned Mtb bLac sens 3.2.
For N#CCCN1CCN(S(=O)(=O)c2ccc3c(c2)CCC3)CC1 the results were Mtb bLac sens -2.0.
Screening COc1ccccc1-c1nnc(SCC(=O)c2c(N)n(C3CC3)c(=O)[nH]c2=O)o1 returned Mtb bLac sens -4.1.
`COc1ccc(C(=O)NC(CC(C)C)C(=O)O)cc1` (centres undefined) gave Mtb bLac sens 0.5.
COC(=O)C1=C(c2cccc(C#N)c2)C[C@@H]2CC[C@H]1N2C(=O)NC1CCCCC1 was read as Mtb bLac sens -3.5.
Screening O=C(Nc1ccc2c(c1)OCCO2)c1cnn(-c2ccccc2)n1 returned Mtb bLac sens -8.1.
Screening N#CCCN(C(=O)COC(=O)c1cc2ccccc2oc1=O)c1ccccc1 returned Mtb bLac sens -2.4.
For CC(=O)Nc1ccc(NC(=O)CSc2nc3ccccc3c(=O)n2CCCN2CCOCC2)cc1 the results were Mtb bLac sens -3.9.
`COc1cc(S(=O)(=O)N2CCOCC2)cc(C(=O)OCC(=O)NC2CCCCC2)c1OC` gave Mtb bLac sens -5.6.
Screening COC(=O)C1=C(c2ccc(F)cc2OCc2ccccc2)C[C@@H]2CC[C@H]1N2C(=O)NCCOc1ccc(OC)cc1 returned Mtb bLac sens 11.1.
COc1ccc(S(=O)(=O)N2CCCCCC2)cc1NS(=O)(=O)c1cc(C(=O)O)cc(C)c1C was read as Mtb bLac sens 3.6.
`COC(=O)Cc1csc(NC(=O)c2ccc3ncsc3c2)n1` gave Mtb bLac sens 5.4.
CC(=O)Nc1ccc(S(=O)(=O)Nc2cc(Cl)ccc2N2CCOCC2)cc1 was read as Mtb bLac sens -1.8.
NS(=O)(=O)c1ccc(N2CCN(S(=O)(=O)Cc3ccccc3)CC2)nc1 was read as Mtb bLac sens -2.0.
For Cc1ccc(CN2CCN(/N=C/c3cc(Br)ccc3F)CC2)cc1 the results were Mtb bLac sens -1.7.
O=C(NN=Cc1ccccc1Cl)c1ccc(-n2cnnn2)cc1 was read as Mtb bLac sens -6.3.
`CCCCC[C@@H]1C=C(C(=O)O)[C@H](c2ccc(CC)cc2)N1S(=O)(=O)c1ccc(C)cc1` gave Mtb bLac sens -1.4.
For CCN[C@@H](C)Cc1cccc(C(F)(F)F)c1 the results were Mtb bLac sens -2.1.
COc1cccc(/C=C/C(=O)OCC(=O)c2ccccc2)c1OC was read as Mtb bLac sens 3.4.
`C[C@]12CC[C@H](O)CC1=CCC1C2CC[C@@]2(C)C1C[C@@H](O)[C@@H]2O` (some centres undefined) gave Mtb bLac sens 0.3.
Screening COC(=O)c1c(C(=O)c2ccc(Br)cc2)n(C)c2ccccc12 returned Mtb bLac sens -12.6.
Cc1ccc(C)c(S(=O)(=O)N2CCN(C(=O)CN3C(=O)NC(C)(C)C3=O)CC2)c1 was read as Mtb bLac sens -5.1.
Screening COc1ccc(C(=O)OCC(=O)N2CCc3ccccc32)cc1S(=O)(=O)N1CCOCC1 returned Mtb bLac sens 65.0.
For COc1cccc(NC(=O)CN(C)C(=O)Cc2ccc3c(c2)CCC3)c1 the results were Mtb bLac sens -8.1.
For O=C(NCc1ccc2c(c1)OCO2)c1nc(Cn2cc(Br)cn2)no1 the results were Mtb bLac sens -3.3.
`Cc1ccc(C(=O)OCC(=O)NCc2ccccc2)cc1S(=O)(=O)N1CCCCC1` gave Mtb bLac sens -10.6.
`CC(=O)N1CCN(C(=O)CSc2ncnc3sc(C)c(C)c23)CC1` gave Mtb bLac sens -1.6.
O=C(CNC(=O)c1ccc(Br)o1)NCC1COc2ccccc2O1 (centres undefined) was read as Mtb bLac sens -0.8.
For O=C1C=C(c2ccc(F)c(Cl)c2)C[C@@H](c2ccc(F)cc2)C1 the results were Mtb bLac sens 5.0.
`O=C(NNC(=O)c1cc(S(=O)(=O)N2CCCCC2)ccc1Cl)c1ccccc1O` gave Mtb bLac sens 2.2.
CC1CCN(C(=O)c2ncn(Cc3ccccc3)c2C(=O)N2CCC(C)CC2)CC1 was read as Mtb bLac sens 2.2.

Of the compounds above, three contain a COOH group.
`COc1ccc(C(=O)NC(CC(C)C)C(=O)O)cc1` (centres undefined) gave Mtb bLac sens 0.5.
COc1ccc(S(=O)(=O)N2CCCCCC2)cc1NS(=O)(=O)c1cc(C(=O)O)cc(C)c1C was read as Mtb bLac sens 3.6.
`CCCCC[C@@H]1C=C(C(=O)O)[C@H](c2ccc(CC)cc2)N1S(=O)(=O)c1ccc(C)cc1` gave Mtb bLac sens -1.4.

New compounds follow.
O=C(CNc1cccc(S(=O)(=O)N2CCOCC2)c1)Nc1ccccc1F was read as Mtb bLac sens -8.2.
For CN(C(=O)CSc1nnc(-c2ccc3c(c2)OCO3)o1)C1CCS(=O)(=O)C1 (centres undefined) the results were Mtb bLac sens 0.1.
For CCCCNC(=O)C(CC)(ONc1ccccc1C(F)(F)F)c1ccccc1OC (centres undefined) the results were Mtb bLac sens 1.9.
Screening CC(C)CCCN1C(N(C)C)=NC[C@@H]1Cc1ccccc1 returned Mtb bLac sens 0.2.
O=C(Cn1nc(C(=O)O)c2ccccc2c1=O)Nc1cc(C(F)(F)F)ccc1-n1cncn1 was read as Mtb bLac sens -3.1.
`CCc1cc(C(=O)NN2C(=O)NC3(CCCCC3)C2=O)sc1C` gave Mtb bLac sens -12.9.
O=C(Nc1ccnn1C1CCN(C(=O)c2ccc(F)c(Cl)c2)CC1)C1CC1 was read as Mtb bLac sens inconclusive.
Screening CC(C)(C)c1ccc(O)c(O)c1 returned Mtb bLac sens -6.5.
COc1ccccc1CNC(=O)CCNS(=O)(=O)/C=C/c1ccc(C)cc1 was read as Mtb bLac sens -9.3.
Screening COc1ccc(NC(=O)C23CC4CC(CC(Cl)(C4)C2)C3)cc1S(=O)(=O)N1CCOCC1 returned Mtb bLac sens 1.4.
`Cc1ccc(S(=O)(=O)Nc2ccc(C(=O)N3CCCC3)cc2)c(C)c1NS(C)(=O)=O` gave Mtb bLac sens -4.0.
COc1ccc(C(=O)Nc2cc(Cl)ccc2-n2cncn2)c(OC)c1OC was read as Mtb bLac sens -4.7.
`COc1ccc(NC(=O)CN(C)CC(=O)N(C)C2(C#N)CCC(C)CC2)cc1` (centres undefined) gave Mtb bLac sens -3.6.
CCOC(=O)[C@H]1[C@H]2COc3ccccc3[C@@H]2N2C(=O)c3cc(F)c(F)cc3NC(=O)[C@@]12C was read as Mtb bLac sens -6.1.
For COc1cc(C(=O)OCC(=O)NC(=O)NCc2ccccc2)ccc1OC(F)F the results were Mtb bLac sens -1.3.
Screening Cc1nnc(NC(=O)C2CCN(S(=O)(=O)c3cc([N+](=O)[O-])ccc3Cl)CC2)o1 returned Mtb bLac sens -3.6.
`O=C1NCCN(Cc2cccc(Oc3ccccc3)c2)C1CC(=O)N1CCCCC1` (centres undefined) gave Mtb bLac sens inconclusive.
Cc1ccc(N(CC(=O)NCC(O)c2ccccc2)S(=O)(=O)c2ccc(C)cc2)cc1 (centres undefined) was read as Mtb bLac sens -26.1.
`C[C@H](CO)N1C[C@H](C)[C@@H](CN(C)C(=O)NC2CCCCC2)Oc2c(NC(=O)Nc3ccc(C(F)(F)F)cc3)cccc2C1=O` gave Mtb bLac sens 12.5.
For Cc1cc(C)cc(N(CCC#N)C(=O)COC(=O)Cn2[nH]c(=O)c3ccccc3c2=O)c1 the results were Mtb bLac sens -9.6.

Brought forward from above: 3 compounds, followed by the next part.
Cc1ccc(N(CC(=O)NCC(O)c2ccccc2)S(=O)(=O)c2ccc(C)cc2)cc1 (centres undefined) was read as Mtb bLac sens -26.1.
`C[C@H](CO)N1C[C@H](C)[C@@H](CN(C)C(=O)NC2CCCCC2)Oc2c(NC(=O)Nc3ccc(C(F)(F)F)cc3)cccc2C1=O` gave Mtb bLac sens 12.5.
For Cc1cc(C)cc(N(CCC#N)C(=O)COC(=O)Cn2[nH]c(=O)c3ccccc3c2=O)c1 the results were Mtb bLac sens -9.6.
Screening CC(=O)c1ccc(NC(=O)C(C)Sc2nnc(-c3ccncc3)n2C2CC2)cc1 (centres undefined) returned Mtb bLac sens -4.1.
For CC1CCCCN1C(=O)c1cccc(NC2=C(Cl)C(=O)N(Cc3ccccc3)C2=O)c1 (centres undefined) the results were Mtb bLac sens 4.6.
For Cc1ccc([C@@H]2CC=C(C(=O)O)[C@H](c3ccc(C(C)(C)C)cc3)N2S(=O)(=O)c2ccc(C)cc2)cc1 the results were Mtb bLac sens 4.3.
Screening CCN(CC(=O)Nc1ccc(NC(C)=O)cc1)C(=O)c1ccccc1Sc1ccccc1C#N returned Mtb bLac sens 4.4.
Screening O=C(CCN1CCN(Cc2ccccc2)CC1)NNC(=O)c1cc2ccccc2o1 returned Mtb bLac sens 4.0.
For Cc1ccc(C(=O)N(C)Cc2ccc(N3CCOCC3)cc2)cc1S(=O)(=O)NCc1ccccc1 the results were Mtb bLac sens -1.0.
Screening Cc1ccc2nc3n(c(=O)c2c1)-c1ccccc1C(=O)NC3Cc1ccc(O)cc1 (centres undefined) returned Mtb bLac sens 2.8.
CCOc1ccc(NC(=O)c2cc(C3CC3)nc3c2cnn3C(C)C)cc1OC was read as Mtb bLac sens 16.7.
COc1ccccc1C(CNC(=O)c1cccc(S(=O)(=O)Nc2ccc(F)cc2)c1)N(C)C (centres undefined) was read as Mtb bLac sens -8.5.
Screening COc1ccc(NC(=O)N(C)C[C@H]2Oc3ccc(NS(=O)(=O)c4c(C)noc4C)cc3C(=O)N([C@H](C)CO)C[C@@H]2C)cc1 returned Mtb bLac sens 3.2.
COC(=O)C1=C(c2ccc(OC)c(OC)c2)C[C@@H]2CC[C@H]1N2C(=O)NCCCOC(C)C was read as Mtb bLac sens -1.4.
For CN(C(=O)c1ccc(F)c(S(=O)(=O)N2CCOCC2)c1)C1CCCCC1 the results were Mtb bLac sens -0.5.
Screening COc1ccccc1-c1nnc(SCC(=O)Nc2cccnc2Cl)n1C returned Mtb bLac sens -1.2.
For CCOc1ccc2nc(N3C(=O)C(O)=C(C(=O)c4ccco4)C3c3ccco3)sc2c1 (centres undefined) the results were Mtb bLac sens -2.8.
O=C(OCCOc1cccc(Cl)c1)c1ccc(F)c(S(=O)(=O)N2CCOCC2)c1 was read as Mtb bLac sens -4.9.
Screening O=C(Nc1ccnn1C1CCN(Cc2ccccc2)CC1)C1CCOC1 (centres undefined) returned Mtb bLac sens -3.5.
Screening Cc1ccc(S(=O)(=O)N[C@@H](CC(C)C)C(=O)N2CCC(C(=O)N[C@H](C(=O)O)C(C)C)CC2)cc1 returned Mtb bLac sens 1.7.
`CCCCCN(C(=O)CCC(=O)OCCOc1cccc(C)c1)c1c(N)n(CCCC)c(=O)[nH]c1=O` gave Mtb bLac sens 0.5.
For COC(=O)C1=C(c2ccc(OC(F)(F)F)cc2)C[C@@H]2CC[C@H]1N2C(=O)NC1CC1 the results were Mtb bLac sens -2.8.
Screening O=C(O)c1cccc(S(=O)(=O)Nc2ccc(Oc3ccccc3)cc2)c1 returned Mtb bLac sens -7.6.
`CS(=O)(=O)c1ccc(-c2sc3ccccc3c2C(=O)NCCCN2CCOCC2)cc1` gave Mtb bLac sens -3.5.
COc1ccc(C(=O)NC(=O)COC(=O)c2ccc(C)o2)cc1 was read as Mtb bLac sens -15.8.
N#Cc1ccccc1OCc1cccc(S(=O)(=O)N2CCOCC2)c1 was read as Mtb bLac sens 0.6.
`O=C(COC(=O)c1cc(=O)[nH]c2ccccc12)Nc1ccc(F)cc1` gave Mtb bLac sens -4.3.
CC(C)NS(=O)(=O)c1ccc(NC(=O)C(C)OC(=O)C2CCC2)cc1 (centres undefined) was read as Mtb bLac sens 4.2.
Screening O=C(COC(=O)Cc1ccsc1)Nc1cccc(F)c1 returned Mtb bLac sens -1.6.
For CCOc1ccc2oc(C(=O)OCC(=O)NC3CCCC3)c(C)c2c1 the results were Mtb bLac sens -7.7.
Screening O=C(N/N=C/c1ccc(F)c(F)c1)c1cccc(S(=O)(=O)N2CCCCC2)c1 returned Mtb bLac sens -2.8.
Cc1c[nH]c2ccccc12 was read as Mtb bLac sens -4.7.
Screening CCC(C(=O)Nc1cccc(S(=O)(=O)N(C)c2ccccc2)c1)c1ccccc1 (centres undefined) returned Mtb bLac sens -3.0.
COc1ccc(N2CCN(C(=O)COC(=O)COc3cccc(C(F)(F)F)c3)CC2)cc1 was read as Mtb bLac sens -8.2.
Screening Cc1ccc(S(=O)(=O)Nc2cccc3c2O[C@H](CN(C)C(=O)Nc2ccc(C(F)(F)F)cc2)[C@@H](C)CN([C@H](C)CO)C3=O)cc1 returned Mtb bLac sens 4.2.
For Cc1c(S(=O)(=O)NCc2ccccc2)c(=O)n(C)c(=O)n1C the results were Mtb bLac sens -2.4.

Two records drawn at random from those above:
Screening Cc1ccc(S(=O)(=O)Nc2cccc3c2O[C@H](CN(C)C(=O)Nc2ccc(C(F)(F)F)cc2)[C@@H](C)CN([C@H](C)CO)C3=O)cc1 returned Mtb bLac sens 4.2.
COc1ccc(N2CCN(C(=O)COC(=O)COc3cccc(C(F)(F)F)c3)CC2)cc1 was read as Mtb bLac sens -8.2.

A portion of the library; rates above refer to the full screens.
